Screens (PubChem BioAssay)
HIV Env fusion: inhibitors of HIV Env-mediated cell fusion; HeLa-JRFL Env/CEM21 cell fusion, luciferase; inhibition, % at 12.3 µM; actives 1.1% (n = 360,000); AID 651610;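 active = mean replicate inhibition score of at least 50 and every replicate individually at or above 50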;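 note: 0% = plate neutral controls and 100% = maraviroc near 300 nM; one replicate is shown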
MT1-MMP act inh: inhibitors of human MT1-MMP activation. P50281. HT1080 RFP-PRO-GFP cells, GFP/RFP ratio fluorescence, overnight; percent of plate control window, DMSO zero. GFP/RFP ratio change, % at 20 µM. actives 0.061% (n = 360,000). AID 651647;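 active = GFP/RFP ratio change of at least 30% with cell ATP level not reduced by more than half and red fluorescence within 50% of control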; note: strong numbers were not always called active
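Compound: 20 µM single dose, 1% DMSO / System: HT1080 RFP-PRO-GFP cells / Controls: DMSO and RFP-L50D-GFP cell wells / Read-out basis: GFP/RFP fluorescence ratio / Schedule: overnight compound exposure at 37 °C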
PABP FP inh: PABP-poly(A) binding inhibition | P11940 | PABP-poly(A) RNA binding, fluorescence polarization | inhibition, % at 35 µM | actives 1% (n = 290,000) | AID 2014;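 active = 50% or more with normal probe brightness, or confirmed in later tests; about a fifth of its hits are not listed in these tables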;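 note: calls also rest on retests at 20 µM and on dose response follow-up; controls were probe without protein and protein plus probe with vehicle; some compounds called inactive have numbers as strong as hits; many hits fall short of the cut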
Yeast UUG start: alters start codon recognition fidelity in yeast. S. cerevisiae UUG-firefly luciferase reporter, luminescence/redox ratio. activity score, % at 18.7 µM. actives 0.13% (n = 350,000);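 active = replicate mean at a twofold rise or more, about +100% in these data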;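 note: firefly luciferase made from a UUG start codon reports start codon fidelity; reporter light over untreated wells divided by growth signal over untreated wells; some hits fall short of that in this replicate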
CSC inhib: cancer stem cell inhibition; cancer stem cell-like cells viability, luminescence; inhibition, % at 7.5 µM; AID 2717; actives 1.1% (n = 300,000);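 active = mean at 75% or more and at least half the replicates too; tested in HMLE shEcad cells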;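 note: 0% = median of negative and 100% = median of positive control wells; the first replicate is given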
Rce1 inh: inhibitors of yeast Ras-converting enzyme | yeast membranes, quenched prenylated peptide cleavage fluorescence | calls only | actives 0.27% (n = 290,000) | AID 2563;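 active = fall in fluorescence gain of 50% or more versus controls, with final raw signal at or below 3038400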;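 note: plate controls were neutral control wells for no effect and wells lacking membranes for full effect; tested at 10 µM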
Target sequence (Q03530 whole entry, looked up): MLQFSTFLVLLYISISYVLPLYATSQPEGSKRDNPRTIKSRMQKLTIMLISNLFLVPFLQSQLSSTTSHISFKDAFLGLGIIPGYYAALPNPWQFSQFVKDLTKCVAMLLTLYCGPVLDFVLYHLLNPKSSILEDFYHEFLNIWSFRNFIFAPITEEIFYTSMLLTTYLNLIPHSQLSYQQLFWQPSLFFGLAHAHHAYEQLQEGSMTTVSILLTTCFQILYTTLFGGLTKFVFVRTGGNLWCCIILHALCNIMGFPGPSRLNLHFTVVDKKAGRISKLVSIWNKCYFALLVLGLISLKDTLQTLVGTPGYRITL
eIF4H FP inh: inhibitors of RNA binding by human eIF4H. AID 2012. actives 0.94% (n = 290,000). eIF4H fluorescence polarization binding assay. Q15056. inhibition, % at 35 µM;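 active = 50% or more with normal probe brightness, or confirmed in later tests; about a fifth of its hits are not listed in these tables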;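 note: calls also rest on retests at 20 µM and on dose response follow-up; 0% = protein and probe with vehicle and 100% = probe without protein; strong numbers were not always called active; many hits fall short of the cut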
eIF4H FP inh retest: further read-out of eIF4H FP inh, marked with its call; inhibition, %; compound at 20 µM; confirmation average;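 mean of two retest wells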
PABP FP inh retest: recorded beside PABP FP inh, whose call it bears; inhibition, %; compound at 20 µM; confirmation repeats;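 mean of two retest wells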
MT1-MMP act inh RFP: recorded beside MT1-MMP act inh, whose call it bears; RFP signal change, %; measured here: RFP expression control read;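 0 = vehicle wells; hits needed this value within 50% of zero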
Starred values were filed as active, the others as inactive; i = inactive; · = no result given.

Start of the data: the first twelve compounds (preview)
SMILES | HIV Env fusion | MT1-MMP act inh | MT1-MMP act inh RFP | PABP FP inh | Yeast UUG start | CSC inhib | Rce1 inh | eIF4H FP inh | others
CN(C(=O)c1cccc(NC(=O)Cc2ccc(NC(=O)C3CCN(C(=O)C4CCC4)CC3)cc2)c1)C1CCCC1 | 19 | -6 | 2 | · | -27 | · | · | ·
Cc1cccc(C)c1NC(=O)NCc1ccco1 | -5 | -7 | 3 | 10 | -13 | -6 | i | -8
COc1ccc([N+](=O)[O-])cc1N(CC(O)CN(CC(C)C)CC(C)C)S(=O)(=O)c1ccc(C)cc1 (stereo unspecified) | -13 | -4 | -6 | -8 | 2 | 9 | i | -3
Cc1ccc(C)c(NS(=O)(=O)c2cc(C(=O)Nc3ccccc3-c3ccccc3)ccc2C)c1 | 71* | -18 | -18 | 3 | -16 | 38 | i | -8
C=C(C)CN(CC)c1ccc(N2C(=O)CCCC2=O)cc1[N+](=O)[O-] | -3 | 5 | -3 | 10 | -11 | 4 | i | -5
CN(C)S(=O)(=O)N1CCC(Oc2ccc(C(=O)NC3Cc4ccccc4C3)cc2)CC1 | 7 | -16 | -30 | 5 | -4 | 28 | i | -9
COc1cc(NC(=O)CN2C(=O)C(=O)N(CC(C)C)C2=O)cc(OC)c1 | -8 | 5 | 3 | · | -17 | · | · | ·
CC1CN(C(=O)CN2C(=O)c3ccccc3S2(=O)=O)CC(C)O1 (stereo unspecified) | · | 1 | 4 | 2 | -6 | -6 | i | 5
CC1C(=O)N(Cc2cn(CCC3OCCO3)nn2)CCS(=O)(=O)N1Cc1ccc(-c2ccc(F)nc2)cc1 (stereo unspecified) | -3 | 1 | -4 | · | -6 | · | · | ·
CC(C)c1nc2cc(C(=O)N3CCNC(=O)C3c3cccc(F)c3)ccc2o1 (stereo unspecified) | 3 | 0 | 2 | 5 | -7 | -1 | i | -7
NS(=O)(=O)c1cccc(NS(=O)(=O)c2ccc3ccccc3c2)c1 | 20 | 5 | -6 | 4 | -5 | 5 | i | 2
Cc1nn(Cc2ccc(C(=O)Nc3ccc(C(=O)OC(C)C)cc3)o2)c(C)c1Cl | · | -2 | -18 | 2 | -18 | -6 | i | 1

Main list (from the top)
SMILES | HIV Env fusion | MT1-MMP act inh | MT1-MMP act inh RFP | PABP FP inh | Yeast UUG start | CSC inhib | Rce1 inh | eIF4H FP inh | others
CN(C(=O)c1cccc(NC(=O)Cc2ccc(NC(=O)C3CCN(C(=O)C4CCC4)CC3)cc2)c1)C1CCCC1 | 19 | -6 | 2 | · | -27 | · | · | ·
Cc1cccc(C)c1NC(=O)NCc1ccco1 | -5 | -7 | 3 | 10 | -13 | -6 | i | -8
COc1ccc([N+](=O)[O-])cc1N(CC(O)CN(CC(C)C)CC(C)C)S(=O)(=O)c1ccc(C)cc1 (stereo unspecified) | -13 | -4 | -6 | -8 | 2 | 9 | i | -3
Cc1ccc(C)c(NS(=O)(=O)c2cc(C(=O)Nc3ccccc3-c3ccccc3)ccc2C)c1 | 71* | -18 | -18 | 3 | -16 | 38 | i | -8
C=C(C)CN(CC)c1ccc(N2C(=O)CCCC2=O)cc1[N+](=O)[O-] | -3 | 5 | -3 | 10 | -11 | 4 | i | -5
CN(C)S(=O)(=O)N1CCC(Oc2ccc(C(=O)NC3Cc4ccccc4C3)cc2)CC1 | 7 | -16 | -30 | 5 | -4 | 28 | i | -9
COc1cc(NC(=O)CN2C(=O)C(=O)N(CC(C)C)C2=O)cc(OC)c1 | -8 | 5 | 3 | · | -17 | · | · | ·
CC1CN(C(=O)CN2C(=O)c3ccccc3S2(=O)=O)CC(C)O1 (stereo unspecified) | · | 1 | 4 | 2 | -6 | -6 | i | 5
CC1C(=O)N(Cc2cn(CCC3OCCO3)nn2)CCS(=O)(=O)N1Cc1ccc(-c2ccc(F)nc2)cc1 (stereo unspecified) | -3 | 1 | -4 | · | -6 | · | · | ·
CC(C)c1nc2cc(C(=O)N3CCNC(=O)C3c3cccc(F)c3)ccc2o1 (stereo unspecified) | 3 | 0 | 2 | 5 | -7 | -1 | i | -7
NS(=O)(=O)c1cccc(NS(=O)(=O)c2ccc3ccccc3c2)c1 | 20 | 5 | -6 | 4 | -5 | 5 | i | 2
Cc1nn(Cc2ccc(C(=O)Nc3ccc(C(=O)OC(C)C)cc3)o2)c(C)c1Cl | · | -2 | -18 | 2 | -18 | -6 | i | 1
COc1ccc(-c2c(-c3cc(OC)cc(OC)c3)n(C)c3ccc(-c4ccn[nH]4)cc23)cc1 | 13 | -10 | -8 | · | -16 | 109* | · | ·
Cc1cccc(CN2C(=O)[C@H]3Cc4c([nH]c5ccccc45)C(C)(C)N3C2=O)c1 | 3 | 0 | -7 | · | 2 | 4 | i | ·
Cc1c(Cl)cccc1NC(=O)COC(=O)Cn1cnc2c1c(=O)n(C)c(=O)n2C | · | -3 | 0 | · | -14 | 5 | · | ·
C=CCN(CC=C)C(=O)CN1C(=O)NC(C)(c2ccc3cc(OC)ccc3c2)C1=O (stereo unspecified) | -59 | -1 | -5 | 3 | -6 | -12 | i | -5
C#CC1(O)CCC2C3CCC4=Cc5oncc5CC4(C)C3CCC21C (stereo unspecified) | 13 | -2 | -7 | · | -4 | · | · | ·
COc1ccc(C=C2C(=O)c3ccccc3C2=O)cc1O | 22 | -7 | 3 | -10 | -13 | -4 | i | 9
CC1(C)Cc2c(sc3c2c(=N)n(Cc2ccco2)c(=O)n3CC(=O)Nc2ccccc2)CO1 | · | -6 | 0 | 2 | -10 | -14 | i | -4
CCOc1ccc(-n2nnnc2-c2nc3ccccc3s2)cc1 | -68 | -3 | -5 | 0 | · | 15 | i | -6
Cc1nn(-c2nc3ccccc3s2)c(N)c1-c1ccc(Cl)cc1 | -41 | 0 | -3 | 3 | -8 | -5 | i | 9
CCCS(=O)(=O)c1nc(S(=O)(=O)c2ccc(C)cc2)c(N2CCC(C(N)=O)CC2)s1 | -5 | 3 | 4 | -2 | -6 | · | i | -12
COc1cccc(NC(=O)CCC(=O)N2CC(C)Oc3ccc(C)cc32)c1 (stereo unspecified) | -5 | 0 | -5 | 0 | -1 | -9 | i | -8
COC(=O)c1c(NC(=O)C(=O)N2CCOCC2)sc2c1CCCC2 | 4 | -3 | 0 | 4 | · | -7 | i | -10
O=C(Nc1ccccc1Cl)c1ccc2nc(N3CCOCC3)sc2c1 | -22 | -1 | -5 | -8 | -3 | -8 | i | -8
Cc1cc(Nc2ccccc2C(=O)O)n(-c2ccc([N+](=O)[O-])cc2)n1 | 26 | 6 | -5 | 27 | · | -3 | i | -6
Cc1ccccc1N1CCN(CC(=O)Nc2nc(C)c(C(=O)N(C)C)s2)CC1 | 16 | -1 | 3 | -10 | -10 | 5 | i | 8
CC(=O)Nc1ccc2oc(-c3ccccc3Br)nc2c1 | · | -1 | 1 | -10 | -31 | 4 | i | 1
COc1ccccc1Nc1nnc(SCc2cc(=O)n3ccsc3n2)s1 | -8 | -2 | 0 | -9 | -8 | 7 | · | 9
Cc1cccc(C)c1N(CC(=O)N(C)Cc1ccccc1)S(C)(=O)=O | 4 | -1 | 1 | 6 | 15 | -3 | i | -5
O=C(Nc1ccc([N+](=O)[O-])cn1)C1CC1 | -14 | 1 | 3 | 0 | -15 | -13 | i | -3
COc1ccc([C@@H]2CC=C(C(=O)O)[C@H](c3ccc(C)cc3)N2S(=O)(=O)c2ccccc2C)cc1 | -23 | 2 | 5 | · | 2 | · | · | ·
Nn1c(SCC(=O)NCC2CCCO2)nnc1-c1ccc(OC(F)F)cc1 (stereo unspecified) | 16 | 2 | -3 | · | -1 | 1 | i | ·
C/C(=N\OC(=O)Nc1ccccc1)c1cnn(-c2cc(C(F)(F)F)cc(C)n2)c1C | 4 | · | · | 1 | · | -8 | i | -9
CCOC(=O)c1ccc(NC(=O)CSc2nc(NC(=O)c3ccccc3)c3c(C)c(C)oc3n2)cc1 | -4 | -12 | -11 | 2 | -22 | 4 | i | 6
CCOC(=O)c1c(C2CC2)csc1NC(=O)COC(=O)c1cc(OC)c(OC)cc1[N+](=O)[O-] | 11 | 2 | 3 | -4 | · | -6 | · | -2
O=C(COC(=O)CCc1nc2ccccc2s1)Nc1ccc(S(=O)(=O)N2CCOCC2)cc1 | -53 | -1 | -3 | -18 | -13 | -12 | i | 0
O=S(=O)(N/N=C\c1ccc(-c2ccccc2Cl)o1)c1ccccc1 | -13 | -6 | 3 | 18 | -19 | 12 | i | -10
C#Cc1ccc([C@H]2C=C(C(=O)NC3CC3)O[C@@H](OCC)[C@@H]2CCCO)cc1 | 9 | -11 | 2 | 0 | 0 | -10 | i | -9
CCOc1cc(/C=N/NC(=O)c2ccc(=O)n(C)c2)ccc1O | -2 | 3 | 5 | 0 | · | · | i | -5
CC1(C)Cc2c(sc3c2c(N)nc(=S)n3Cc2ccccc2)CO1 | 4 | · | · | -10 | · | -10 | i | -10
Cc1ccc(NC(=O)C2CCN(S(=O)(=O)c3c(C)[nH]c(=O)[nH]c3=O)CC2)cc1 | · | 4 | 7 | -2 | -4 | -14 | i | 6
Cc1cc(C)n(S(=O)(=O)c2ccc(Cl)cc2)n1 | -2 | -5 | 0 | -10 | 11 | -13 | i | 5
COC(=O)c1cc(Br)c(=O)n(CCN(C(C)C)C(C)C)c1 | · | 2 | 7 | -11 | -9 | · | i | -8
CCCN(CCC)C(=O)c1ccc2c(c1)S(=O)(=O)c1ccccc1C2=O | 12 | 2 | 1 | 3 | -16 | -5 | i | -4
O=C1c2cccnc2C(=O)N1Cc1ccc(S(=O)(=O)NCc2ccco2)s1 | -2 | 1 | 1 | 3 | -10 | -6 | i | -10
COCCCNc1nc2ccccc2nc1NS(=O)(=O)c1ccccc1 | 5 | -4 | 3 | -2 | · | 9 | i | 51 | eIF4H FP inh retest=-10;PABP FP inh retest=3
C=CCNC(=O)CC12CC3CC(C1)CC(CC(=O)NCC=C)(C3)C2 | -7 | -4 | -1 | 0 | -36 | 3 | i | -14
CCc1nnc(NC(=O)CC(CN(C)S(=O)(=O)c2ccccc2)c2ccccc2)s1 (stereo unspecified) | 0 | 1 | -5 | -14 | 0 | -3 | i | -7
CCCc1cc(=O)[nH]c(SCC(=O)NCC2COc3ccccc3O2)n1 (stereo unspecified) | -5 | 4 | 3 | · | -9 | · | · | ·
Cc1onc(-c2ccccc2Cl)c1C(=O)OCC(=O)N1CCCCC1 | · | -1 | -5 | · | -3 | -16 | · | ·
COCCOc1cc(NC(=O)c2ccccc2)c(Cl)cc1Cl | -11 | 2 | -2 | -6 | · | 3 | i | -3
